Rango dissoc inh: qHTS Assay for Inhibitors of RanGTP induced Rango (Ran-regulated importin-beta cargo) - Importin beta complex dissociation. AID 540253, 2011. Snurportin-1 (Homo sapiens) + GTP-binding nuclear protein Ran (Homo sapiens) + Importin …. Potency, µM (doses to about 46.1 µM), for the others: top-dose activity change, negative = inhibition. Biochemical FRET Rango-importin beta, RanGTP-induced dissociation. hit rate 0.071% among 340,000; active means falling FRET ratio curve, often poorly fitted, with flat reads before Ran was added; inconclusive means other falling curves, or compound fluorescence or quenching; inactive means flat or rising ratio curve;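 further: potency means the concentration at half of the fitted maximal effect; % of control where 0% means no effect; nearly all actives have a fitted effect of over 45% in size; -100% = wells without RanGTP and RCC1; the record marks most hits as doubtful in a second field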
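Compounds preincubate 5 min with complex of recombinant Rango and importin beta in PBS with 1 mM DTT. Ran (0.6 uM) loaded with 2 mM GTP plus 0.2 uM RCC1 starts dissociation; FRET is recorded 45 min later.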
GLA inh pH 4.5: qHTS Assay for Inhibitors of Human alpha-Galactosidase at pH 4.5; AID 1467, 2008; purified enzyme, 4-MU-alpha-Gal fluorescence, pH 4.5; 230,000 tested, under 10 active; activity change, negative = inhibition, % at 105 µM; Alpha-galactosidase A (Homo sapiens), P06280; inconclusive = small, poorly fitted or top-dose-only inhibition, or a rising curve; inactive = flat fitted curve, though single readings scatter; no compound was filed as active;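 further: 0% = full activity with enzyme and -100% = basal without enzyme; dose as in the result columns while the protocol names 77 µM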
miR-21 reporter: qHTS Assay for Modulators of miRNAs and/orActivators of miR-21; HeLa miR-21 FLuc reporter, luciferase, 48 h; Potency, µM (titrated, usually from 38.3 µM), inactives show at the highest dose reporter change, positive = more light; 340,000 tested, under 10 active; active = well fitted rising curve with a large enough effect; inconclusive = small, poorly fitted or top-dose-only effect; inactive = no such curve, though single readings can be large or run the other way;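 further: % of control where 0% means no effect; miR-21 action dims this reporter so a rising signal means less miR-21 action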
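HeLa miR-21-FLuc reporter line, endogenous miR-21; 2000 cells/well in DMEM/10% FBS; compound titration up to ~40uM final, 48 h, 37 degree Celsius; luciferase detection reagent, 15 min lysis, CCD luminescence.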
Rango complex inh: qHTS Assay for Inhibitors of Rango (Ran-regulated importin-beta cargo) - Importin beta complex formation; Importin subunit beta-1 (Homo sapiens), Q14974; Potency, µM (series often up to 92.2 µM), for inactives: at the highest dose inhibition of complex formation; AID 540263, 2011; Rango CFP/YFP FRET sensor + importin beta, 45 min; hit rate 0.031% among 340,000; active = rising FRET ratio curve, often small or poorly fitted; inconclusive = mostly compound fluorescence or quenching in the first reads; inactive = flat curves in all reads;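 further: potency means the concentration at half of the fitted maximal effect; 0% = DMSO wells and 100% = buffer wells lacking importin beta; nearly all actives have a fitted effect of over 15% in size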
Target sequence (Q14974 whole entry, looked up): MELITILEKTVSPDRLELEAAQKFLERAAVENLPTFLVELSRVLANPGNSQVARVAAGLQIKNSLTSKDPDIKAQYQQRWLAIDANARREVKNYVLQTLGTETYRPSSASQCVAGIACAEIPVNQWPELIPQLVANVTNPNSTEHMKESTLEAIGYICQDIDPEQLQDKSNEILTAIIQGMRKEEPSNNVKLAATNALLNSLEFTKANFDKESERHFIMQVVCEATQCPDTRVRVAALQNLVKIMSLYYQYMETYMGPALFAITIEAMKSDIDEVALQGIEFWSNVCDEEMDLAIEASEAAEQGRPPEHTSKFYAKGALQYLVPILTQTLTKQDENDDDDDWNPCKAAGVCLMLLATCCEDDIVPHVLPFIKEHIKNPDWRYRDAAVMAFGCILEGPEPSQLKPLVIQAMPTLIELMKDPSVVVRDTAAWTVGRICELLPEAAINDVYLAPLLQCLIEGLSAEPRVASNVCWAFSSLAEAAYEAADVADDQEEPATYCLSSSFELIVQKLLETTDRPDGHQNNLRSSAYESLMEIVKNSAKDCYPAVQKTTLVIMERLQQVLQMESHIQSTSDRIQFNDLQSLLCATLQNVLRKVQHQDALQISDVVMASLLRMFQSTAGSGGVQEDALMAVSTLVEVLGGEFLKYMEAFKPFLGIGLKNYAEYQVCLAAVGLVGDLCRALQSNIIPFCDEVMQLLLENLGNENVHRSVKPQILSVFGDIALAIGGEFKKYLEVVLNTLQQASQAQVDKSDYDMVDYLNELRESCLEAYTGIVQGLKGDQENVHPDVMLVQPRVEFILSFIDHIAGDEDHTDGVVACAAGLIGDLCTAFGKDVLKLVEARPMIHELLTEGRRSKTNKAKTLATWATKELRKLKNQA
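Inhibition scored from the CFP 486 nm/YFP 530 nm FRET ratio 45 min after adding 0.125 microM importin beta to 50 nM Rango biosensor preincubated 5 min with compound (room temperature, PBS with DTT, Tween-20, BSA). No-importin wells as positive control.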
Starred values were filed as active, the others as inactive; ? = inconclusive; nt = not tested or not shown; & = joins results of further samples. This is a subset, so the mix of outcomes need not match the whole.

Order of values – Rango dissoc inh | GLA inh pH 4.5 | miR-21 reporter | Rango complex inh
CCn1cc(C(=O)O)c(=O)c2cnc(N3CCN(C(=S)NC(=O)c4ccccc4)CC3)nc21
  -10% | 1 | -1% | 0.3%
COc1ccccc1NC(=O)CCn1cccc1
  23% | 0 | -6% | 2.4%
COc1ccc(-c2cc3nc(C)cc(N)n3n2)cc1
  10% | 3 | 13% | -0.8%
Nc1cc(N)nc(SCC(=O)NNC(=O)Cc2ccccc2)n1
  2% | -13 | -1% | 0.8%
O=C(COc1ccccc1F)NC12CC3CC(CC(C3)C1)C2
  -17% | 4 | 14% | 0.1%
COc1ccccc1NC(=O)CCCNC(=O)Cn1cnc2sc(C)c(C)c2c1=O
  -2% | nt | 0% | 4.2%
COCCNS(=O)(=O)c1cc(OC)c(Cl)cc1Cl
  nt | -3 | -1% | nt
COc1ccccc1NS(=O)(=O)c1cccc(C(=O)OCc2nc3ccccc3s2)c1
  -1% | -1 | -26% | 0.2%
O=C1CSC(c2ccc([N+](=O)[O-])cc2)N1Cc1ccccc1 (stereo not given)
  -16% | nt | -5% | 8.3%
OC(CNCc1ccccc1)(c1ccccc1)c1ccccc1
  -1% | nt | -8% | -0.1%
Cc1cc(C(=O)CSc2nc(N)cc(=O)[nH]2)c(C)n1Cc1ccco1
  24% | 2 | 2% | -0.1%
CC(C)(C)C(=O)N1CCN(c2ncccc2C(F)(F)F)CC1
  -12% | -1 | -4% | 0.7%
Cc1[nH]c2ccccc2c1C(=O)CN1CCSCC1
  16% | 6 | -10% | ?
Cc1ccc(NC(=O)C(=O)NCCCN2CCCC2=O)cc1
  9% | nt | nt | 1.0%
COC(=O)c1ccccc1S(=O)(=O)Nc1ccc(OC)nc1
  -6% | 5 | -4% | -0.5%

Some of the entries so far, as tab-separated lines:
canonical_smiles	Rango dissoc inh	GLA inh pH 4.5	miR-21 reporter	Rango complex inh
Cc1cc(C(=O)CSc2nc(N)cc(=O)[nH]2)c(C)n1Cc1ccco1	24%	2	2%	-0.1%
Cc1[nH]c2ccccc2c1C(=O)CN1CCSCC1	16%	6	-10%	?
COCCNS(=O)(=O)c1cc(OC)c(Cl)cc1Cl	nt	-3	-1%	nt
COc1ccccc1NS(=O)(=O)c1cccc(C(=O)OCc2nc3ccccc3s2)c1	-1%	-1	-26%	0.2%
Cc1ccc(NC(=O)C(=O)NCCCN2CCCC2=O)cc1	9%	nt	nt	1.0%
COc1ccccc1NC(=O)CCCNC(=O)Cn1cnc2sc(C)c(C)c2c1=O	-2%	nt	0%	4.2%
OC(CNCc1ccccc1)(c1ccccc1)c1ccccc1	-1%	nt	-8%	-0.1%

Some entries already given with just GLA inh pH 4.5 and Rango complex inh.
canonical_smiles | GLA inh pH 4.5 | Rango complex inh
Nc1cc(N)nc(SCC(=O)NNC(=O)Cc2ccccc2)n1 | -13 | 0.8%
O=C(COc1ccccc1F)NC12CC3CC(CC(C3)C1)C2 | 4 | 0.1%

(more compounds)
Order of values – Rango dissoc inh | GLA inh pH 4.5 | miR-21 reporter | Rango complex inh
Cc1ccc(NC(=S)N2CCC(NC(=O)c3ccc(F)cc3)CC2)cc1C
  -4% | nt | 4% | -0.4%
Cc1cc(C)nc(Nc2cc([N+](=O)[O-])ccc2C)n1
  -2% | 6 | -7% | 0.9%
NNC(=O)C1c2ccccc2Oc2ccccc21
  0% | nt | -9% | -0.1%
Cc1ccc(S(=O)(=O)N2CCC(C(=O)N3CCN(Cc4ccccc4)CC3)CC2)cc1
  -7% | -2 | -5% | -1.9%
CCC(C)(C)NC(=O)C(c1ccc(OC)cc1)N(C(=O)CCC(=O)Nc1cc(C)on1)c1ccc(OC)cc1OC (stereo not given)
  -10% | nt | 2% | 1.2%
O=C(Cn1cnc2ccccc2c1=O)NCCC(=O)Nc1ccc(F)cc1
  0% | nt | 8%&-1% | -2.6%
Cc1cc(C)cc(NC2=NC3(CCCCC3)N=C(N)N2)c1
  -7% | 5 | 28% | -3.4%
NC(=O)c1cccc(NC(=O)Nc2ccc(Cl)cc2)c1
  0% | nt | -46% | -1.7%
CCN(CC(=O)Nc1cccc(C(C)=O)c1)S(=O)(=O)c1ccc(C)cc1
  -20% | 1 | 3% | -6.0%
COc1ccc(NC(=O)CC#N)cc1OC
  -5% | 3 | -3% | 3.2%
COc1ccccc1N1CCN(/N=C\C(Br)=C\c2ccccc2)CC1
  25% | 7 | 1% | -1.7%
CCc1ccc(CN2CCC(CO)(CC3CCCCO3)CC2)o1 (stereo not given)
  0% | 2 | -5% | 1.3%
CC1CCN(C(=S)c2cn(Cc3ccccc3F)c3ccccc23)CC1
  21% | -16 | 8% | -1.4%
COc1ccccc1CN1C[C@@H]2C[C@@H](c3ccc4nsnc4c3)N3CCC[C@@]23C1=O
  1% | -1 | -11% | 4.9%
COc1ccc(CN(Cc2ccccn2)S(=O)(=O)c2ccc(-n3cnnn3)cc2)cc1
  0% | nt | -3% | ?
O=C(CCn1c2c(c3ccccc31)CCCC2)NNC(=O)c1ccc([N+](=O)[O-])cc1
  3% | -4 | 0% | -2.1%
Cc1ccc([N+](=O)[O-])cc1NC(=S)NC(=O)c1c(Cl)cnn1C
  -2% | nt | 0% | -1.2%
CC1(C)C(=O)OC(C(=O)c2ccccc2)C2(CCCCC2)C1=O (stereo not given)
  -5% | 0 | 2% | -2.1%
COc1cc(C2C(C#N)=C(N)Oc3cc(N(C)C)ccc32)cc2c1OCO2 (stereo not given)
  ? | -4 | 22% | ?
O=C1/C(=C/c2ccc(Cl)cc2)SC(=S)N1CCC(=O)N1CCCCC1CCO (stereo not given)
  -10% | nt | 1% | 4.6%
CC(=O)c1ccc(Oc2cc(C)nc(N3CCOCC3)n2)cc1
  19% | 0 | -34% | 2.7%
O=C(Nc1cccnc1)c1c(F)c(F)c(F)c(F)c1F
  -4% | -5 | -1% | -3.2%
O=C(Nc1cc(F)ccc1F)C1CCCN1S(=O)(=O)c1cccc2nsnc12 (stereo not given)
  4% | nt | -5% | 4.1%
COc1cc(/C=C(\NC(=O)c2cc(OC)c(OC)c(OC)c2)C(=O)NC(C(=O)O)c2ccccc2)cc(OC)c1OC (stereo not given)
  -7% | nt | 0% | -0.5%
CN1CCN(C(=O)C2=C[C@@H](c3csc4ccccc34)C[C@@H](OCCCCO)O2)CC1
  -1% | 1 | -5% | -0.4%
Cc1ccc(S(=O)(=O)c2cc3ccccc3oc2=Nc2ccc3c(c2)OCO3)cc1
  -5% | -6 | -8% | 3.3%
CN(C)/C=C/C(=O)c1ccc(Cl)cc1
  ? | -8 | -16% | ?
CCCc1cc(C(=O)OC)c(NC(=O)OCC)s1
  ? | -7 | -8% | ?
CC1CCCCN1C(=O)c1ccc(C(=O)c2ccccc2)cc1 (stereo not given)
  15% | nt | nt | 2.9%
Cc1ccccc1CNC(=O)CCC(=O)N1Cc2ccccc2Oc2ncccc21
  12% | nt | -2% | -1.0%
COc1ccc2[nH]c(N=Nc3ccccc3C)c(O)c2c1
  -5% | -8 | -36% | -0.1%
O=C(Nc1ccon1)c1ccc(Cl)s1
  13% | 0 | -13% | 8.7%
COCCNc1ncnc2c1[nH]c1ccccc12
  -7% | -8 | 7% | 0.6%
Cc1nc2cc(-c3cccc(F)c3)nn2c(C)c1CCC(=O)NC(C)CCc1ccco1 (stereo not given)
  -9% | -3 | ? | -6.2%
CN1C(=O)C(C)(C)c2cc(S(=O)(=O)N3CCN(c4cccc(Cl)c4)CC3)ccc21
  -1% | nt | 2% | 12%
Nc1ccc2c(c1)-c1ccccc1S(=O)(=O)N2
  ? | -3 | -8% | ?
COc1ccc(C(=O)Nc2cccc(-c3nnc(-c4ccco4)o3)c2)cc1
  9% | 1 | 18% | -0.4%
CCC1(C)Cc2c(sc3nc(SC)[nH]c(=O)c23)CO1 (stereo not given)
  -12% | -4 | -1% | 3.4%
Cc1ccsc1C(=O)OCC(=O)NCCCc1ccccc1
  17% | 4 | -9% | 0.1%
Cc1c(C(=O)NCC2COc3ccccc3O2)oc2ccc(S(=O)(=O)N3CCOCC3)cc12 (stereo not given)
  -5% | 1 | 1% | 2.0%
Cc1cccc(-n2c(SCc3cc(=O)n4ccsc4n3)nc3ccccc32)c1
  -12% | -3 | -37% | 1.3%
O=C(Oc1cccc(C(=S)N2CCOCC2)c1)c1ccc([N+](=O)[O-])cc1
  2% | nt | -2% | -1.2%
COc1ccc(C(=O)Nc2ccc3c(c2)OCCO3)cc1S(=O)(=O)N1CCOCC1
  15% | nt | nt | -2.3%
CSCCC(NC(=O)COc1ccccc1)C(=O)N(C)Cc1ccc(Cl)cc1Cl (stereo not given)
  50% | nt | nt | 1.1%
Cc1nn(C(C)C(=O)O)c(=O)c2ccccc12 (stereo not given)
  -3% | -4 | 1% | 1.5%
O=C(CN1CCCC1)OCCCC1CCCCC1
  11% | 0 | -2% | -0.6%
Cc1nnc2c(N3CCN(C(=O)c4ccco4)CC3)nc3ccccc3n12
  8% | nt | -3% | 0.7%
Cc1ccc2c(c1)COc1c3ccc(C(=O)N4CCCCC4)cc3nn1-2
  11% | -2 | -61% | 0.0%
O=C(NCCCn1ccnc1)c1ccc(NS(=O)(=O)c2cccc([N+](=O)[O-])c2)cc1
  ? | nt | nt | 5.4%
COc1ccc(F)cc1S(=O)(=O)N1CCCC(C)C1 (stereo not given)
  -18% | 4 | -7% | -0.3%
CC(C(=O)Nc1ccc2c(c1)OCCO2)N1Cc2ccccc2C1=O (stereo not given)
  2% | nt | -5% | 3.0%
COc1ccc(C(=O)NCCc2nnc3ccc(SCC(=O)N4CCCC4)nn23)cc1
  -4% | nt | -1% | -0.8%
COc1cc(NC(=O)c2noc3c2CCC3)c(OC)cc1Cl
  0% | 5 | 1% | ?
O=c1[nH]c(CSc2nnc(COc3ccccc3)n2-c2ccccc2)nc2ccccc12
  ? | -5 | -12% | ?
COc1ccc(S(=O)(=O)Nc2ccccc2C(=O)NCc2cccnc2)cc1OC
  -4% | nt | -2% | 4.8%
O=C(NCCc1c[nH]c2ccccc12)C(=O)NCC1OCCCN1S(=O)(=O)c1ccc(F)cc1 (stereo not given)
  -1% | -4 | 6% | 5.8%
CCc1ccc(-c2csc3[n+]2CCN3C(C)=O)cc1
  6% | -7 | -2% | 1.0%
Cc1ccc2cccc(OCC(=O)Nc3ccc4c(c3)OCO4)c2n1
  13% | 5 | -1% | 0.1%
O=C(CSc1nnc(NC(=O)C2CC2)s1)Nc1ccccc1
  -1% | nt | -7% | 3.6%
CC1=C(C(=O)Nc2ccccn2)C(c2ccccc2Cl)NC(=S)N1 (stereo not given)
  8% | 2 | -43% | -2.9%

Next section.
Order of values – Rango dissoc inh | GLA inh pH 4.5 | miR-21 reporter | Rango complex inh
CC(C)C[C@H](NC(=O)OC(C)(C)C)C(=O)N/N=C/C1=Cc2ccccc2OC1C (stereo not given in full)
  20% | -13 | 26% | -4.2%
CS(=O)(=O)c1cccc(C(=O)NCc2ccccc2)c1
  1% | -1 | 1% | 1.5%
O=C(COC(=O)CC1CCS(=O)(=O)C1)Nc1ccc(F)cc1 (stereo not given)
  -23% | nt | nt | -0.6%
O=C(CSc1nnc(C2CC2)n1Cc1ccccc1)N1CCNC1=O
  17% | nt | nt | 5.5%
COc1ccc(C2=NN(C(=O)CCCC(=O)O)C(c3cccs3)C2)cc1OC (stereo not given)
  13% | 8 | -22% | 1.5%
Cc1ccc(NC(=S)Nc2cccc3cnccc23)c(C)c1
  -3% | -10 | -2% | 0.4%
Cc1ccccc1-c1noc(-c2ccccc2C(=O)NCc2ccco2)n1
  -7% | 1 | 0% | 0.0%
CCOC(=O)N1CCN(Cc2nc(N)nc(Nc3ccc(Cl)cc3)n2)CC1
  6% | -15 | -22% | -0.3%
CCC(c1nnnn1C(C)(C)CC)N1CCN(c2ccccc2F)CC1 (stereo not given)
  -1% | -13 | -2% | -1.0%

Screening data from PubChem BioAssay.
